Bioassay records from PubChem.
FGF22 binding – binders of recombinant human FGF22 by thermal shift; Q9HCT0; SYPRO orange fluorescence; percent of sucrose octasulfate shift, DMSO zero; calls only at 9.99 µM; hit rate 1.5% among 340,000;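 active = melting point raised past a set limit in the mean and every replicate; three in four hits are not shown here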
Target sequence (Q9HCT0 whole entry, looked up): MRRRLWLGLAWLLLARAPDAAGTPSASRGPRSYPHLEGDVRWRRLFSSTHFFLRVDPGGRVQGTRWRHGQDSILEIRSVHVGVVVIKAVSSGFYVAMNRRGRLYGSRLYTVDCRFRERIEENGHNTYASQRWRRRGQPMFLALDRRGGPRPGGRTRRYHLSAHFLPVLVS
rRNA inh HTS – inhibitors of bacterial rRNA selective over humanized ribosomes. E. coli WT GFP vs humanized-ribosome RFP mutants, fluorescence, 24 h; stronger effect = lower value; DMSO median 0, no signal -100. GFP signal change (wild-type ribosome), % (test concentration not listed). hit rate 1.6% among 350,000. AID 720706;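 active = significant combined selectivity score with lowered wild-type GFP, culture density cut under 30%, mutant RFP and density less affected; inactive = any of these conditions unmet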; also: one replicate is shown; some compounds called inactive have numbers as strong as hits
MLL AF4-AF9 inh – MLL-AF4/AF9 protein interaction inhibition | P42568 | AlphaScreen, biotin-AF4 peptide binding to FLAG-AF9 | inhibition, % at 10 µM | hit rate 0.47% among 350,000;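 active = every replicate reaching a set inhibition limit, whatever the replicate mean, cut at about 25% in these data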;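 also: 0% = plate neutral control median and 100% = total signal loss; the record names both 10 and 1 µM as test concentration; the first replicate is given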
Target sequence (P42568 whole entry, looked up): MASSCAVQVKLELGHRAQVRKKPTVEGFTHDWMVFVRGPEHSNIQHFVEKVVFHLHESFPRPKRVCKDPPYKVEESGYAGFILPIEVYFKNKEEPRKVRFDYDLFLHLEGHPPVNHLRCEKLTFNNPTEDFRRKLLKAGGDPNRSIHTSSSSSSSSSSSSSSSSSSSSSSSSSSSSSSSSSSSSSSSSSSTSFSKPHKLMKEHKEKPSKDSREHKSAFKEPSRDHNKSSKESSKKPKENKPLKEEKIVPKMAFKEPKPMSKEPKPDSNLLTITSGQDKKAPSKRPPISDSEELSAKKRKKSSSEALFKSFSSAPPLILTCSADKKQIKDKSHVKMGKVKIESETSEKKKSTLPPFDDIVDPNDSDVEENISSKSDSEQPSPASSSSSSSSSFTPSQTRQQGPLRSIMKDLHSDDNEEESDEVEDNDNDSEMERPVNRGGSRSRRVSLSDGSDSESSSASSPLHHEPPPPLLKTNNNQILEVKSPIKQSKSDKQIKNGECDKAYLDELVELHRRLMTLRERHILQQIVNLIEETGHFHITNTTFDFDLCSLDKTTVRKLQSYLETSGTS
rRNA inh HTS OD600 – second read-out of rRNA inh HTS, no call of its own (marks repeat the call); OD600 change, %; measured here: OD600 growth;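 optical density of the mix in the first replicate; 0 = DMSO median and -100 = no signal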
rRNA inh HTS RFP – recorded beside rRNA inh HTS, whose call it bears; RFP signal change, %; measured here: RFP humanized mutant strains;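 first replicate; 0 = DMSO median and -100 = no signal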
* marks the source's active call; other numbers are inactive results; i = inactive; . = no result given; & = joins results of further samples.

SMILES	FGF22 binding	rRNA inh HTS	rRNA inh HTS OD600	rRNA inh HTS RFP	MLL AF4-AF9 inh
C[C@@H]1CN([C@H](C)CO)C(=O)c2cccc(N(C)C)c2O[C@@H]1CN(C)Cc1ccc(Oc2ccccc2)cc1	i	-3	-5	0.3	11
O=C(Nc1ccc2c(c1)OCCO2)C(c1ccccc1)n1c(=O)c(-c2cc3ccccc3[nH]2)nc2ccccc21 (stereo not given)	i	16	15	1.6	-20
CO[C@@H]1CN(C)C(=O)c2ccc(NC(=O)c3ccc(F)cc3)cc2OC[C@H](C)NC[C@@H]1C	i	-1	-1	2.0	-0.6
COc1ccccc1CNc1cccc(C)n1	i	3	2	-5.3	-0.7
COc1cccc(NC(=O)N(C)C[C@H]2OCc3ccccc3-c3ccccc3C(=O)N([C@H](C)CO)C[C@H]2C)c1	i	-2	-5	-0.8	-2.5
Cc1ccc(S(=O)(=O)N(C)C[C@H]2Oc3c(NC(=O)c4ccncc4)cccc3C(=O)N([C@@H](C)CO)C[C@@H]2C)cc1	i	4	12	-1.0	-3.2
N#Cc1ccccc1OCC(=O)Nc1nc(-c2ccccn2)cs1	i	-32	-44	-8.8	-5.8
O=C(C[C@@H]1CC[C@@H]2[C@H](COC[C@H](O)CN2Cc2nccs2)O1)NCc1ccc(F)cc1	i	-5	-6	-0.2	-1.3
O=C1NC(=O)c2c(Br)c(Br)c(Br)c(Br)c21	i	3	16	-2.4	-1.9
COc1ccc(-c2ccc(C(=O)NCc3ccncc3)c3occc23)c(C)c1	i	-41	-63	-12	-8.8
CCCC#Cc1cnc2c(c1)C(=O)N([C@@H](C)CO)C[C@@H](C)[C@H](CN(C)C(=O)c1cccc(F)c1)O2	i	13	-1	-9.3	-3.5
COc1ccc(NC(=O)c2cc(-c3cc(Cl)ccc3OC)n[nH]2)cc1OC	i	-18	-46	0.9	2.3
Cc1ccc(S(=O)(=O)N(C)C[C@@H]2Oc3ccc(NS(=O)(=O)c4ccc(Cl)cc4)cc3C(=O)N([C@@H](C)CO)C[C@H]2C)cc1	i	-1	-3	-0.4	1.6
C[C@@H]1CN([C@@H](C)CO)S(=O)(=O)c2ccc(C#CC3(O)CCCC3)cc2O[C@H]1CN(C)C(=O)c1ccncc1	i	-3	-1	-4.9	0.0
COc1ccc(S(=O)(=O)Nc2ccc3c(c2)CC(=O)N([C@H](C)CO)C[C@H](C)[C@@H](CN(C)Cc2ccc4c(c2)OCO4)O3)cc1	i	-8	-24	1.2	13
COc1cc(N2CCC(O)CC2)ccc1Nc1cc(Nc2ccccc2S(=O)(=O)C(C)C)c2cc[nH]c2n1	i	-11	23	-5.5	14
CCCNC(=O)N1[C@H](CO)[C@@H]2c3ccccc3N(C(=O)Nc3cccc(Cl)c3)C[C@@H]21	i	-24	-23	1.6	2.2
CN(C)CC(=O)N[C@@H]1C=C[C@@H](CC(=O)NCCN2CCCCC2)O[C@H]1CO	i	6	11	-0.5	-2.0
C[C@H](CO)N1C[C@H](C)[C@@H](CN(C)Cc2ccccc2)Oc2ccc(NC(=O)Nc3ccc(C(F)(F)F)cc3)cc2CC1=O	i	-7	-26	8.8	6.5
COc1cccc(-c2cnc3c(NC=O)cc(-c4ccc(O)c(OC)c4)cn23)c1	i	4	-12	5.3	1.2
C[C@H](CO)N1C[C@H](C)[C@@H](CN(C)S(=O)(=O)c2ccccc2)Oc2ccc(NC(=O)CCCN(C)C)cc2C1=O	i	2	-4	-0.8	3.0
CCOc1ccc(NC(=O)CN(C)C(=O)c2ccc3c(c2)S(=O)(=O)N=C2CCCCCN23)cc1OCC	i	5	8	-1.8	0.7
Cn1c(=O)c2c(ncn2CC(=O)OCC(=O)c2ccc(OC(F)F)cc2OC(F)F)n(C)c1=O	i	14	6	0.5	-1.6
Cc1c(C(=O)N2CC(C(=O)N3CCCCC3)Oc3ccccc32)oc2ccccc12 (stereo not given)	i	-5	-20	2.5	-16
C[C@@H]1CN([C@H](C)CO)C(=O)c2cccc(NC(=O)c3ccncc3)c2O[C@@H]1CN(C)C(=O)NC1CCCCC1	i	1	1	-1.4	-0.6
O=C1C2CCCN2C(=O)N1CCN1CCN(c2cccc(C(F)(F)F)c2)CC1 (stereo not given)	i	-10	-1	-1.1	-1.1
CCCC(=O)Nc1ccc2c(c1)C(=O)N(C)C[C@H](OC)[C@H](C)CN[C@H](C)CO2	i	1	2	-0.4	-0.7
CCCc1nnc(NS(=O)(=O)c2ccc(C)cc2)o1	i	7	3	0.6	-2.9
CNC[C@@H]1Oc2ccc(NC(=O)CCN3CCOCC3)cc2CC(=O)N([C@H](C)CO)C[C@H]1C	i	1	9	-1.7	-1.2
COc1ccc(NC(=O)Nc2ccc3c(c2)CC(=O)N([C@H](C)CO)C[C@H](C)[C@H](CN(C)CC2CCCCC2)O3)cc1	i	-1	0	6.5	8.8
C[C@@H]1CCCCO[C@@H](CN(C)C(=O)Nc2ccc3c(c2)OCO3)[C@@H](C)CN([C@H](C)CO)C(=O)c2cc(NS(=O)(=O)c3cn(C)cn3)ccc2O1	i	1	2	-1.5	-16
O=C(Nc1ccc(Cl)cc1)C1Cc2c(-c3ccc4c(c3)OCO4)ccnc2O1 (stereo not given)	i	3	-7	1.2	1.0
NC(=O)c1cc(S(=O)(=O)N2CCOCC2)ccc1Sc1ccccc1N	i	7	6	0.2	0.9
C[C@@H]1CN([C@H](C)CO)C(=O)c2cc(-c3cccc(F)c3)cnc2O[C@@H]1CN(C)C(=O)C1CCOCC1	i	-1	1	-3.0	-4.2
C[C@@H]1CN([C@@H](C)CO)C(=O)c2cc(NC(=O)NC3CCCCC3)ccc2O[C@@H]1CN(C)Cc1ccc(C(=O)O)cc1	i	5	10	-3.0	-0.4
O=C(COn1nnc2ccc(S(=O)(=O)N3CCOCC3)cc21)NCc1cccc(Cl)c1	i	0	1	1.1	0.9
C[C@@H]1CN([C@@H](C)CO)C(=O)CCCn2nncc2CO[C@H]1CN(C)C(=O)Cc1ccccc1	i	4&1	3&3	-2.0&-1.9	-2.2&0.3&0.3
CCc1nc2ccc(C(=O)N(CC)CCN(C)C)cn2c1N(C)Cc1nccs1	i	9	12	-0.9	0.5
CC(=O)N1[C@H](C(=O)N2CCCCC2)[C@@H](CO)[C@@H]2Cn3c(ccc(C4=CCCCC4)c3=O)[C@@H]21	i	3	11	-1.0	0.6
CCc1nc2c(OCC(=O)c3ccc(F)cc3)cccn2c1N(C)C(=O)c1ccccc1F	i	6	12	0.3	-3.2

Look-ups from the results shown:
C[C@@H]1CCCCO[C@@H](CN(C)C(=O)Nc2ccc3c(c2)OCO3)[C@@H](C)CN([C@H](C)CO)C(=O)c2cc(NS(=O)(=O)c3cn(C)cn3)ccc2O1 in rRNA inh HTS RFP = -1.5
O=C(COn1nnc2ccc(S(=O)(=O)N3CCOCC3)cc21)NCc1cccc(Cl)c1 in rRNA inh HTS = 0

The list goes on:
SMILES	FGF22 binding	rRNA inh HTS	rRNA inh HTS OD600	rRNA inh HTS RFP	MLL AF4-AF9 inh
CC(C)Oc1ccc(S(=O)(=O)N2CCOCC2)cc1NC(=O)C1COc2ccccc2O1 (stereo not given)	i	-4	-4	2.6	-0.7
Cc1ccc(-c2ccc(/C=C(\C#N)C(N)=S)o2)c([N+](=O)[O-])c1	i	-2	-6	15	1.9
C[C@@H]1CN([C@H](C)CO)C(=O)c2cc(-c3ccncc3)cnc2O[C@H]1CN(C)Cc1ccc(F)cc1	i	5	7	-3.2	-1.6
COc1ccc2[nH]c3c(c2c1)CCN1C(=O)C(CC(=O)NCCCn2ccnc2)C[C@H](C(=O)N2CCCCC2)[C@@]31C (stereo not given in full)	i	2	0	-0.8	2.7
N#Cc1ccc(-c2ccc3c(c2)[C@@H]2[C@@H](CCN2C(=O)C2CCCCC2)[C@H](CO)N3)cc1	i	-22	-42	-3.7	-1.1
COC(=O)[C@@H]1[C@@H](CO)[C@@H]2Cn3c(ccc(-c4ccccc4)c3=O)[C@@H]2N1CC1CCCCC1	i	-49	-71	8.5	9.4
CN(C)CC(=O)N[C@H]1CC[C@@H](CC(=O)NCCN2CCCCC2)O[C@@H]1CO	i	3	5	2.0	-9.2
COc1ccc(S(=O)(=O)N(C)C[C@H]2Oc3ccc(NC(=O)Nc4ccccc4)cc3C(=O)N([C@H](C)CO)C[C@H]2C)cc1	i	0	-20	-2.6	-0.9
Cc1ccc(S(=O)(=O)N[C@H]2CC[C@@H](CCNC(=O)Cc3ccccn3)O[C@@H]2CO)cc1	i	4	-4	-2.9	-1.2
O=C(O)Cn1ccnc1[N+](=O)[O-]	i	0	10	1.6	2.3
COCC(=O)N1[C@H](CO)[C@H](c2ccccc2)[C@H]1CNC(=O)c1ccccn1	i	2	3	1.8	-1.4
CCOc1ccc(C(CN2CCOCC2)C(C)=O)cc1OC (stereo not given)	i	5	12	-0.7	0.7
C[C@H]1CN([C@@H](C)CO)C(=O)c2cccc(NC(=O)c3cnccn3)c2O[C@@H]1CN(C)S(C)(=O)=O	i	1	7	-2.6	0.7
C#CCN(C[C@H]1[C@H](OC(=O)NCc2ccccc2)[C@H](OC(=O)NCc2ccccc2)C[C@H]2C(=O)N(c3ccccc3)C(=O)[C@@H]12)S(=O)(=O)c1ccc(C)cc1	i	4	17	0.9	-2.1
Cc1noc(C)c1S(=O)(=O)Nc1ccc2c(c1)C(=O)N([C@H](C)CO)C[C@H](C)[C@@H](CN(C)Cc1ccc3c(c1)OCO3)OCCCC[C@H](C)O2	i	3	2	0.4	1.6
C[C@@H]1CN([C@H](C)CO)C(=O)c2cc(NC(=O)c3ccncc3)ccc2O[C@@H](C)CCCCO[C@H]1CN(C)S(=O)(=O)c1ccccc1	i	0	-3	1.7	-0.5
COCCNC(=O)C[C@@H]1C[C@@H]2c3cc(NC(=O)NC4CCCC4)ccc3O[C@@H]2[C@H](CO)O1	i	2	3	1.2	0.6
CCCS(=O)(=O)NC(=O)C1(C)CCN(C(=O)Cc2ccc(OC)cc2)C1 (stereo not given)	i	4	7	1.3	1.6
CCNC(=O)Nc1ccc2c(c1)C(=O)N(C)[C@H]1CC[C@@H](CC(=O)Nc3ccccc3)O[C@H]1CO2	i	-1	-1	-0.4	0.3
O=C1NC(=S)NC(=O)C1=Cc1ccccc1C(=O)O	i	14	16	-1.3	-3.1

A second format for part of the listing above.
Values run as follows: FGF22 binding, rRNA inh HTS, rRNA inh HTS OD600, rRNA inh HTS RFP, MLL AF4-AF9 inh
> CC(C)Oc1ccc(S(=O)(=O)N2CCOCC2)cc1NC(=O)C1COc2ccccc2O1 (stereo not given)
→ i, -4, -4, 2.6, -0.7
> Cc1ccc(-c2ccc(/C=C(\C#N)C(N)=S)o2)c([N+](=O)[O-])c1
→ i, -2, -6, 15, 1.9
> C[C@@H]1CN([C@H](C)CO)C(=O)c2cc(-c3ccncc3)cnc2O[C@H]1CN(C)Cc1ccc(F)cc1
→ i, 5, 7, -3.2, -1.6
> COc1ccc2[nH]c3c(c2c1)CCN1C(=O)C(CC(=O)NCCCn2ccnc2)C[C@H](C(=O)N2CCCCC2)[C@@]31C (stereo not given in full)
→ i, 2, 0, -0.8, 2.7

Other records
SMILES	FGF22 binding	rRNA inh HTS	rRNA inh HTS OD600	rRNA inh HTS RFP	MLL AF4-AF9 inh
CCNC(=O)C[C@@H]1CC[C@H]2[C@@H](COc3ccc(NC(=O)c4cccs4)cc3C(=O)N2C)O1	i	1	6	-1.8	-1.1
O=C(NC[C@@H]1[C@H](c2ccccc2)[C@@H](CO)N1C(=O)Cc1ccncc1)C1CCC1	i	-1	1	-0.2	-1.6
O=C(c1cnccn1)N1CC(=O)N2[C@H](C1)[C@@H](c1ccc(/C=C/c3ccccc3)cc1)[C@@H]2CO	i	-3	-2	1.8	2.7
C[C@@H]1CCCCO[C@H](CN(C)Cc2ccc3c(c2)OCO3)[C@@H](C)CN([C@H](C)CO)C(=O)c2cc(NC(=O)CCC(F)(F)F)ccc2O1	i	-1	4	-2.3	-1.5
CC(=O)OCC(=O)C1(O)CCC2C3CC(C)C4=CC(=O)CCC4(C)C3C(O)CC21C (stereo not given)	.	3	-2	1.7	-12
CC(C)CC#Cc1cnc2c(c1)C(=O)N([C@@H](C)CO)C[C@@H](C)[C@H](CN(C)C(=O)Cc1ccccc1)O2	i	-4	-10	1.6	0.7
COc1ccc2c3c([nH]c2c1)[C@@H](CO)N(C(C)=O)CC31CCN(C(=O)Nc2ccc(F)cc2)CC1	i	-3	9	-2.9	-2.1
C[C@@H]1CN([C@H](C)CO)C(=O)c2c(c3ccccc3n2C)-c2ccccc2CO[C@H]1CN(C)C(=O)c1ccccc1	i	3	-15	0.9	0.7
CCC(=O)Nc1ccc2c(c1)OC[C@H](C)N(C(=O)c1ccncc1)C[C@H](C)[C@H](OC)CN(C)C2=O	i	3	9	-1.2	-0.5
Cc1noc(C)c1NC(=O)N(C)C[C@@H]1Oc2ncc(C#CCN(C)C)cc2C(=O)N([C@@H](C)CO)C[C@@H]1C	i	-1	-7	0.6	-1.3
CC(C)(C)S(=O)N1Cc2cc(C(=O)NCC(F)(F)F)nc(-c3cccc(-c4cccc(F)c4)c3)c2[C@H]1CCO (stereo not given in full)	i	-1	-3	11	0.1

This is a subset. The share of hits here may be higher or lower than overall.
